D2 PAM: positive allosteric modulators of human D2 dopamine receptor; 0.23% of 360,000 active; DiscoveRx D2 beta-arrestin cells, luminescence, 90 min; 100% = 57 uM dopamine signal; potentiation, % (no concentration beside the values); P14416; active = potentiation of 50% or more; inconclusive = 30% to 50%; inactive = 30% or less;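 also: compound concentration not given in the record; tested on top of an EC20 dose of dopamine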
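D2 cells co-treated with compound plus 50 nM dopamine (EC20) for 90 min at 37 deg C to detect potentiation. Beta-arrestin recruitment was read as enzyme-fragment luminescence after 1 h at ambient temperature. Full response was set by 57 uM dopamine.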
D2 ag: activates the human D2 dopamine receptor. DiscoveRx PathHunter D2 beta-arrestin, luminescence, 90 min; 100% = 57 uM dopamine signal. 0.084% of 360,000 active. P14416. activation, % (no concentration beside the values); in the data active = activation above about 40%; inconclusive = about 15% to 40%; inactive = below about 15%; also: compound concentration not given in the record; the text of the record calls up to 30% inactive
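Agonist mode: compounds alone added to overnight-plated D2 PathHunter cells for 90 min at 37 C, with 57 uM final dopamine (EC100) defining full response. Beta-arrestin recruitment detected by chemiluminescent reagent, read after 1 h at ambient temperature.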
CtBP-E1A blk: inhibitors of CtBP/E1A interaction. activity change, % (concentration not given with the values). 0.49% of 340,000 active. AlphaScreen GST-E1A/His-CtBP binding, 1536-well; hits give low values; control for the full effect not named in the record; in the data active means activity change below about -65%; inconclusive means about -30% to -65%; inactive means above about -30%; also: % is scaled to controls: 0 for no effect and ±100 for the full control effect
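GST-E1A and His-tagged CtBP (125 nM each as 5X stock) were preincubated with pin-transferred compound for 2 h at 37 °C in the dark, then glutathione donor and nickel acceptor beads were added for 1 h before AlphaScreen reading.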
Six1-Eya2 inh: blocks human Six1 binding to Eya2; activity change, % (test concentration not listed); Q15475+O00167; 0.56% of 360,000 active; AlphaScreen GST-Six1/His-Eya2 binding, biochemical; hits give low values; control for the full effect not named in the record; AID 651725; in the data active = activity change below about -65%; inconclusive = about -30% to -65%; inactive = above about -30%; also: % is scaled to controls: 0 for no effect and ±100 for the full control effect; compound concentration not given in the record
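Homogeneous AlphaScreen proximity assay pairing GST-Six1 with His-tagged Eya2 (added as 5X mix: 250 nM and 500 nM) in 50 mM Tris pH 8.0, 300 mM NaCl, 1 mM TCEP. Glutathione donor and nickel acceptor beads; 1 h, 37 °C, dark.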
Sfp inh: inhibitors of Bacillus subtilis Sfp phosphopantetheinyl transferase | Biochemical Sfp PPTase activity, qHTS | AID 1490 | Potency, µM, without a hit: max response, negative = inhibition, hits mostly inhibitors | Q9F4F7 | 3.5% of 310,000 active; active = well fitted inhibition curve with a large enough effect; inconclusive = small, poorly fitted or top-dose-only effect, or another doubt; inactive = no such curve, though single readings can be large or run the other way;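 also: the enzyme is Sfp with the accession as filed and its product quenches rhodamine fluorescence; potency is read from the fitted curve at half-maximal effect; 0% = enzyme reaction without inhibitor and -100% = no enzyme wells; top concentration of the series not given in the record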
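Compounds were incubated with enzyme (final 15 nM) for 15 min at room temperature before substrate addition started the reaction. Fluorescence at 525 nm excitation, 598 nm emission was recorded immediately and after 30 minutes.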
TRPV1 potentiator: potentiators of human vanilloid receptor 1 (TRPV1). potentiation, % at 8.33 µM. 0.02% of 320,000 active. TRPV1-expressing cells, Fluo-8 calcium influx, capsaicin EC20 potentiation; host cell line not named in the record; control for the full effect not named in the record; active means potentiation above 80%; inconclusive means 30% to 80%; inactive means below 30%; also: 0% is about no effect
Target sequence (Q8NER1 whole entry, looked up): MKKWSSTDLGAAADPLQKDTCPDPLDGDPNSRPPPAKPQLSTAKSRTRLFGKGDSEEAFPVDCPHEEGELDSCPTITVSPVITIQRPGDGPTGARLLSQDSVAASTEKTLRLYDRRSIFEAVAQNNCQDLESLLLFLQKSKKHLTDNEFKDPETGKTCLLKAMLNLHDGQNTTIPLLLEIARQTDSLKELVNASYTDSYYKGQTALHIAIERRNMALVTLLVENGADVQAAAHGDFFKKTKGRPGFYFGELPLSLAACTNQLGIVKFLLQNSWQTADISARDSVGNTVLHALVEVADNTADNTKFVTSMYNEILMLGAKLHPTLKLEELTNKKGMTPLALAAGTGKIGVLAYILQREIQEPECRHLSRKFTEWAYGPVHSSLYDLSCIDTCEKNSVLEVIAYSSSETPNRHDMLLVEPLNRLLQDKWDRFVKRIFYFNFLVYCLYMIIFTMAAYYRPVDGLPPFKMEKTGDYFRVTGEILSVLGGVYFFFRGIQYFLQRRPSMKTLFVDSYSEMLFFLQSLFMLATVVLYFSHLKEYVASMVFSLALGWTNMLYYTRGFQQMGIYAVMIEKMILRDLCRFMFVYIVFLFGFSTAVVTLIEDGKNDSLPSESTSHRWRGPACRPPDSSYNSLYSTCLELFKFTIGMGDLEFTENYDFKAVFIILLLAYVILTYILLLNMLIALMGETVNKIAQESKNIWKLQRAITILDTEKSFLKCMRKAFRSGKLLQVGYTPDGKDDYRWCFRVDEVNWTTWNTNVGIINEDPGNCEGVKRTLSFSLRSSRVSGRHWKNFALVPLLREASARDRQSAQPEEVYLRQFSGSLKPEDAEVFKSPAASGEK
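Fluo-8 calcium influx in TRPV1-expressing cells, kinetic read (ex 480/em 520 nm). Compound added and read 3 min for agonist activity, followed by capsaicin at EC20 final and 2 min further read for enhancement.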
PINK1 expr mod: PINK1 expression modulation. 0.2% of 410,000 active. PINK1 immunofluorescence, high-content cytometry, 24 h. Potency, µM (top dose mostly 76.6 µM), inactives show at the top dose activation (PINK1 increase), most hits filed as activators; active = well fitted activation curve with a large enough effect; inconclusive = small, poorly fitted or top-dose-only effect; inactive = flat fitted curve, though single readings scatter; cell line not stated here;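 also: potency is read from the fitted curve at half-maximal effect; % of control where 0% means no effect; nearly all actives have a fitted effect of over 65% in size; a mitochondrial uncoupler was the plate control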
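Cells are seeded, rested 12 hours, then given compound at five concentrations or DMSO for 24 hours. After fixation, blocking and antibody staining, PINK1 amount and mitochondrial localization are scored; CCCP serves as control.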
Active calls of the source: *; u = inconclusive; x = not tested or not shown; [ ] = remark or other dose.

Value order – D2 PAM, D2 ag, CtBP-E1A blk, Six1-Eya2 inh, Sfp inh, TRPV1 potentiator, PINK1 expr mod
> Cc1cc(C)c(-n2nnnc2SC(C)C)c(C)c1
    -3.5, -1.7, 14.4, 24.2, -10.0%, -1.4, 0.9%
> COc1cccc(/C=C2/C(=O)NN(c3ccc(C)c(C)c3)C2=O)c1
    -0.6, 6.4, 9.2, 0.3, -22.5%, -2.9, 4.0%
> CCC1Oc2ccc(C)cc2N(CC(=O)NC2CCCCC2)C1=O (stereo not given)
    -1.1, 4.0, 0.9, 2.6, 2.0%, -6.0, 0.3%
> CCc1nnc(NC(=O)c2ccc(-c3ccc(Cl)cc3)o2)s1
    -23.2, -0.1, -1.3, -2.4, 4.1%, 3.6, 6.1%
> CNc1c(NS(=O)(=O)c2cc(NC(C)=O)ccc2C)c(=O)oc2ccccc12
    0.2, -2.7, 2.8, -4.7, 5.4%, -7.7, 2.4%
> COc1cccc(NC(=O)CN(C)C(=O)c2cc(-c3cccc(Br)c3)nc3ccccc23)c1
    -8.0, -4.8, -11.9, -0.3, x, u, -2.0%
> c1ccc(-c2nc(N3CCOCC3)sc2-c2ccccc2)cc1
    -4.6, -4.3, 15.0, 10.4, -26.0%, -5.7, 1.1%
> COc1ccc(C(=O)O)cc1S(=O)(=O)N1CCN(c2ccccn2)CC1
    -6.5, 2.9, -10.1, -7.5, 8.8%, 22.1, 2.4%
> O=C(NC1CCCCCC1)c1cc(S(=O)(=O)N2CCCCC2)ccc1N1CCOCC1
    -6.9, 0.5, 0.0, 1.2, -6.2%, -22.8, 1.2%
> CCN(CC)S(=O)(=O)c1cccc(-c2n[nH]c(=S)n2/N=C/c2ccc(Br)cc2)c1
    -9.3, -0.8, -9.1, -12.8, -24.2%, -14.5, 2.4%
> CC(=O)c1cccc(NC(=O)C(C)OC(=O)Cc2n[nH]c(=O)c3ccccc23)c1 (stereo not given)
    -4.8, -0.3, -2.7, -4.5, 20.3%, u, 0.8%
> COc1ccc(N=C2SC(CC(=O)Nc3ccccc3)C(=O)N2CC2CCCO2)cc1 (stereo not given)
    11.7, -1.0, -2.6, -9.6, 4.1%, -17.9, -1.0%
> CC1CCOC2(O1)C(=O)Nc1ccccc12 (stereo not given)
    -9.4, -3.9, -2.5, 3.8, 20.3%, -7.5, 1.5%
> CCSc1n[nH]c2nc3c(c(=O)n12)C1(CCCCC1)Cc1ccccc1-3
    -3.1, -0.4, 1.1, 2.2, -26.4%, 4.2, 4.8%
> Fc1ccc2c(-c3cccc(C(F)(F)F)c3)c(-c3ccccc3)ncc2c1
    -1.1, 0.2, 11.6, 5.4, x, -4.2, u

Single records, from the list above. Order of values: D2 PAM | D2 ag | CtBP-E1A blk | Six1-Eya2 inh | Sfp inh | TRPV1 potentiator | PINK1 expr mod
COc1cccc(NC(=O)CN(C)C(=O)c2cc(-c3cccc(Br)c3)nc3ccccc23)c1 as listed: -8.0 | -4.8 | -11.9 | -0.3 | x | u | -2.0%
CNc1c(NS(=O)(=O)c2cc(NC(C)=O)ccc2C)c(=O)oc2ccccc12 as listed: 0.2 | -2.7 | 2.8 | -4.7 | 5.4% | -7.7 | 2.4%
CCc1nnc(NC(=O)c2ccc(-c3ccc(Cl)cc3)o2)s1 as listed: -23.2 | -0.1 | -1.3 | -2.4 | 4.1% | 3.6 | 6.1%
COc1ccc(C(=O)O)cc1S(=O)(=O)N1CCN(c2ccccn2)CC1 as listed: -6.5 | 2.9 | -10.1 | -7.5 | 8.8% | 22.1 | 2.4%

Remaining list, next part:
Value order – D2 PAM, D2 ag, CtBP-E1A blk, Six1-Eya2 inh, Sfp inh, TRPV1 potentiator, PINK1 expr mod
> CCn1c(=O)c(C(=O)CN2CCc3ccccc32)c(N)n(Cc2ccccc2)c1=O
    1.6, -6.8, 0.0, 9.2, 2.5%, 14.9, 2.3%
> CCN1C(=O)[C@H]2[C@@H](c3ccc(C)cc3)N3C(=O)N(c4ccc(C(F)(F)F)cc4)C(=O)[C@@]3(CC(C)C)[C@H]2C1=O
    -12.0, -0.5, 0.2, 3.4, 12.4%, -13.1, 0.6%
> Cc1cc(C(=O)NC2=NCCS2)cs1
    1.2, -0.3, 7.2, 4.1, 15.6%, -13.2, u
> CCC(=O)Nc1cccc(-n2nnnc2SCC(=O)NCc2ccco2)c1
    6.9, -1.1, -3.2, 3.1, 10.7%, 1.4, 1.2%
> COc1ccc(CN2CCn3ncc(C(=O)Nc4ccc(Cl)cc4Cl)c3C2=O)cc1
    -0.7, -0.1, -0.1, 11.9, 2.5%, -2.2, 10.4%
> Nc1cc(C(=O)O)c(Oc2ccc(Cl)cc2Cl)cc1C(=O)O
    -10.9, -2.9, 11.9, 2.8, 0.0%, 4.3, -0.6%
> COc1ccc(CN(CCCn2cnc3c(OC)ncnc32)CCCn2cnc3c(OC)ncnc32)cc1
    -9.9, -3.6, 2.1, -16.6, x, x, 0.7%
> O=C(O)CC1(CC(=O)Nc2cc3ccccc3cn2)CCCCC1
    -2.2, 0.0, 4.1, 4.6, 12.3%, u, 1.0%
> CCCCn1c(O)c(C(CC)=Nc2ccc3c(c2)CCC3)c(=O)[nH]c1=O
    0.9, -3.6, 1.9, -0.8, -5.5%, 22.8, 12.3%
> CCOC(=O)c1c(-c2ccc(C)o2)csc1NC(=O)CSc1nncs1
    -12.6, 1.4, -1.7, -7.8, 7.94µM*, -9.1, 2.8%[38.3 µM]
> CCOc1ccccc1Nc1nnc(SCC(=O)NCC2CCCO2)s1 (stereo not given)
    -22.1, -2.5, -2.4, 1.5, x, x, -1.4%
> CCCCNC(=O)CN(c1cc(C(F)(F)F)ccc1Cl)S(C)(=O)=O
    -20.2, -4.9, 1.8, -5.2, 12.9%, 0.0, -1.2%
> COc1ccc(-c2cc(NC=O)c3ncc(-c4cccc(C(F)(F)F)c4)n3c2)c(OC)c1
    -9.6, -3.5, -12.4, -12.5, x, x, 13.9%
> C/C(=N\NC(=O)CC(C)C)c1c(C(F)(F)F)[nH]n(-c2nc3ccccc3s2)c1=O
    -0.9, -1.1, -1.7, -3.4, u, 3.8, 0.5%
> CCOc1ccc(N=Nc2c(=O)[nH]n3c(C)cc(C)nc23)cc1
    -8.2, 0.3, 8.5, 3.0, -11.0%, 0.9, 1.9%
> O=C(Nc1ncc(Cc2ccccc2Cl)s1)C1=NCCN1
    -3.9, -3.3, -3.7, -5.8, 14.8%, 2.9, 1.6%
> O=[N+]([O-])c1ccc(CN2C=NS(=O)(=O)c3ccccc32)cc1
    -0.8, -3.0, -21.7, 2.7, 10.6%, 3.9, -1.3%
> COCCn1c(N)c(N(Cc2ccccc2)C(=O)C(C)Oc2ccc(Br)cc2)c(=O)[nH]c1=O (stereo not given)
    -1.4, -0.3, 1.5, 2.7, x, x, 5.4%
> COc1cc(C(=O)OCC(=O)NC(=O)C2CCCCC2)ccc1OC(F)F
    1.5, -0.9, x, -0.2, 10.8%, 2.9, 2.1%
> CCCn1nc(C(=O)Nc2ccc(N3CCOCC3)cc2)c2ccccc2c1=O
    -2.3, 0.7, 3.5, -2.0, x, -0.1, 4.5%
> Cc1c(NC(=O)NC(C)N2C(=O)C3C4C=CC(C4)C3C2=O)c(=O)n(-c2ccccc2)n1C (stereo not given)
    -8.8, -1.1, 9.0, 2.7, 22.0%, -6.6, -0.8%
> Cc1cccc2sc(NC(=O)CSc3nnnn3C)nc12
    -4.6, -2.0, 0.6, -1.7, 12.3%, 2.5, 2.8%
> CCOC(=O)c1c(S(=O)(=O)NCc2ccco2)c(C)n(C)c1C
    2.0, -2.7, 4.1, 2.0, 12.2%, 14.8, 1.3%
> CC1C(=O)N2CCCc3cc(NC(=O)C(=O)NCc4ccccn4)cc1c32 (stereo not given)
    2.7, 3.1, 0.3, -2.3, x, 8.7, 0.6%
> CCN(CC)S(=O)(=O)c1cc(NC(=O)C(C)N(C)CC(=O)Nc2c(C)cccc2C)ccc1C (stereo not given)
    -9.0, 3.5, 10.4, 5.1, 10.3%, 19.6, 0.4%
> CCCCNc1c(-c2ccccn2)nc2nc(C)cc(C)n12
    x, x, u, -87.8*, x, x, 1.4%
> CC1(c2ccccc2)NC(=O)N(CC(=O)Nc2cc(C(F)(F)F)ccc2N2CCCCC2)C1=O (stereo not given)
    0.3, -5.8, 9.2, -5.3, x, x, -2.2%
> COc1ccc(NC(=O)c2ccco2)c([N+](=O)[O-])c1
    26.9, -1.7, -20.0, -10.3, 2.5%, -0.4, 2.0%
> Cc1cc(C)n2nc(-c3cnn(C)c3C(F)(F)F)c(Cl)c2n1
    -19.6, -3.8, -4.4, -1.7, 7.3%, 2.4, -0.7%
> Cc1cc(NCc2ccco2)nc(N2CCC(C(=O)NC3CCCCC3)CC2)n1
    -11.3, -1.6, -17.1, -0.1, 13.8%, -1.5, 0.0%

Given field by field: 2 of the compounds above.
O=[N+]([O-])c1ccc(CN2C=NS(=O)(=O)c3ccccc32)cc1
- D2 PAM: -0.8
- D2 ag: -3.0
- CtBP-E1A blk: -21.7
- Six1-Eya2 inh: 2.7
- Sfp inh: 10.6%
- TRPV1 potentiator: 3.9
- PINK1 expr mod: -1.3%

C/C(=N\NC(=O)CC(C)C)c1c(C(F)(F)F)[nH]n(-c2nc3ccccc3s2)c1=O
- D2 PAM: -0.9
- D2 ag: -1.1
- CtBP-E1A blk: -1.7
- Six1-Eya2 inh: -3.4
- Sfp inh: u
- TRPV1 potentiator: 3.8
- PINK1 expr mod: 0.5%

Next part:
Value order – D2 PAM, D2 ag, CtBP-E1A blk, Six1-Eya2 inh, Sfp inh, TRPV1 potentiator, PINK1 expr mod
> CCCc1ccc2oc(C(=O)N(C)Cc3nccs3)c(C)c2c1
    -8.0, -2.3, 1.7, 1.6, -3.0%, -11.7, 1.4%
> CC(C)(C)NC(=O)Cn1c(=O)oc2cc(S(=O)(=O)N3CCc4ccccc43)ccc21
    -6.4, -5.4, -2.4, 3.5, -0.4%, x, 3.2%
> Cn1c(SCc2ccc(Br)cc2)nc2c(c1=O)SCC2
    -7.1, -0.5, 6.2, u, -15.5%, 0.2, 0.2%
> Cc1ccc(-c2nc(CN(C)Cc3ccc4nccnc4c3)c(C)o2)s1
    -17.0, -2.4, x, -2.7, 10.2%, 1.0, 1.2%
> N#Cc1ccccc1NC(=O)COC(=O)CSc1nc2ccccc2o1
    -17.4, -2.2, -0.4, 10.8, -10.3%, 18.9, 1.1%
> O=C(CNC(=O)c1ccccc1F)Nc1ccc2c(c1)CCC2
    -6.2, 2.1, 14.3, 1.8, x, -1.0, 0.6%
> Cc1ccc(S(=O)(=O)/N=C2/C=C(C3C(=O)CC(C)(C)CC3=O)C(=O)c3ccccc32)cc1
    110.1*, 10.5, -19.2, -10.0, u, -2.5, 7.1%

Screening results deposited in PubChem BioAssay by National Center for Advancing Translational Sciences (NCATS).
